# TrxR1 substrate = qHTS Assay for Substrates of Mammalian Selenoprotein Thioredoxin Reductase 1 (TrxR1): qHTS; Thioredoxin reductase 1, cytoplasmic (Rattus norvegicus), O89049; purified TrxR1 substrate turnover, NADPH consumption readout; Potency, µM (series often up to 114 µM), inactives show at the highest dose activity change, negative = substrate turnover; actives 0.01% (n = 390,000); AID 588456, 2011; also: nearly all actives have a fitted effect of over 50% in size
#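 Rat TrxR1, dispensed at 90 nM, was prereduced with 400 uM NADPH (final) for 5 min at ~22 deg C, then incubated with compound 15 min before 400 uM selenite. A first-read NADPH fluorescence drop versus no-compound background flagged substrates.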
# Pin1 inh = qHTS Assay to Find Inhibitors of Pin1; Peptidyl-prolyl cis-trans isomerase NIMA-interacting 1 (Homo sapiens), Q13526; Pin1 FP peptide displacement, HiFluor488, 10 min; Potency, µM (top dose mostly 115 µM), inactives show at the top dose activity, negative = inhibition, usual class: inhibitors; actives 0.009% (n = 390,000); AID 504891, 2011; active = well fitted inhibition curve with a large enough effect in the polarisation, with a control signal flat, not every such curve was filed as active; inconclusive = small, poorly fitted or top-dose-only effect, or effect the other way, or a change in a side signal; inactive = no such curve, though single readings can be large or run the other way; the % refers to the polarisation
# mIDH1 inhibitor = qHTS for Inhibitors of mutant isocitrate dehydrogenase 1 (IDH1): qHTS; Isocitrate dehydrogenase [NADP] cytoplasmic (Homo sapiens), O75874; IDH1-R132H enzyme, NADPH consumption, diaphorase/resazurin fluorescence; Potency, µM (highest dose often 76.6 µM), inactives show at the highest dose activity change, negative = inhibition, usual class: inhibitors; actives 0.093% (n = 390,000); also: nearly all actives have a fitted effect of over 65% in size
# Target sequence (O75874 whole entry R132H, stated change not applied): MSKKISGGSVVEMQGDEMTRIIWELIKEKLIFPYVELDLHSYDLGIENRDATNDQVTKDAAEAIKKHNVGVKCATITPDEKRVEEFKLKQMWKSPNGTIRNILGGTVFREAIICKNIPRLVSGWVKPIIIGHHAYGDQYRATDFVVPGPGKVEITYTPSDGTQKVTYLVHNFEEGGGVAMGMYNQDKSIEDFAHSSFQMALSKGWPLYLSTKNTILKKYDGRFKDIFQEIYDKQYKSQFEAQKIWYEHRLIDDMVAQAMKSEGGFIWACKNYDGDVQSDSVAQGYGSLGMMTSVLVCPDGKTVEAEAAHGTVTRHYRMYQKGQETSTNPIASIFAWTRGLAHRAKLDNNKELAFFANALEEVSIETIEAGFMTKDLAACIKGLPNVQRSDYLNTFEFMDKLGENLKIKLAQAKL
#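 IDH1-R132H (0.5 ug/mL) preincubated 30 min with compound, then NADPH (0.016 mM) and alpha-KG (2 mM) added; 80 min at RT, pH 7.5. Remaining NADPH coupled via diaphorase/resazurin to fluorescence (540/590 nm); concentration-response curves normalized to no-enzyme control.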
# TrxR1 inh = qHTS Assay for Inhibitors of Mammalian Selenoprotein Thioredoxin Reductase 1 (TrxR1): qHTS; Thioredoxin reductase 1, cytoplasmic (Rattus norvegicus), O89049; recombinant rTrxR1, NADPH fluorescence consumption, selenite substrate; Potency, µM (titrated, usually from 114 µM), for the others: at the top dose activity change, negative = inhibition, usual class: inhibitors; actives 1% (n = 390,000); AID 588453, 2011; also: nearly all actives have a fitted effect of over 65% in size
#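 Rat TrxR1 (90 nM in the dispensed reagent) was pre-reduced with 400 uM NADPH for 5 min at room temperature, then incubated with compound for 15 min. After 400 uM selenite was added, NADPH fluorescence (Ex 340/Em 450 nm) was followed for 8 min.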
# USP1 inh = Inhibitors of USP1/UAF1: Primary Screen; recombinant USP1/UAF1, Ub-Rhodamine cleavage fluorescence; actives 0.23% (n = 390,000); AID 743255, 2014; Potency, µM (top dose mostly 57.1 µM), without a hit: top-dose activity change, negative = inhibition, hits mostly inhibitors; Ubiquitin carboxyl-terminal hydrolase 1 (Homo sapiens), O94782; also: nearly all actives have a fitted effect of over 60% in size; inactives centre near -12
#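 1 nM enzyme complex + cpd, 15 min RT; start with Ub-Rho 150nM final; kinetic fluorescence ex 480/em 540, 6 reads q60 s. Buffer 50mM HEPES pH 7.8, 0.5mM EDTA, 0.1 mg/ml BSA, 1mM TCEP, 0.01% Tween-20.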
# * = called active by the depositor; ? = inconclusive; & = joins results of further samples; [ ] = dose if it differs, or a comment. Unless noted, calls follow the shape of the dose curve; as a rule, active = well fitted inhibition curve with a large enough effect; inconclusive = small, poorly fitted or top-dose-only effect; inactive = no such curve, though single readings can be large or run the other way. % is scaled to controls: 0 for no effect and ±100 for the full control effect; potency is read from the fitted curve at half-maximal effect. Only part of the results is shown; count on the stated rates, not on these rows.
entry	smiles	TrxR1 substrate	Pin1 inh	mIDH1 inhibitor
1	CN1CCc2ccccc2Cc2[nH]c3ccccc3c2CC1	18%[57.1 µM]	-2%	8%
2	CCN1CCCC1CNC(=O)c1cc(S(N)(=O)=O)ccc1OC (stereo not drawn)	9%[57.1 µM]	-7%	-5%
3	CCN(CC)CCNC(=O)c1cc(S(C)(=O)=O)ccc1OC	3%[57.1 µM]	-6%	11%
4	CCN(CC)CCOc1ccc(/C(=C(/Cl)c2ccccc2)c2ccccc2)cc1	-3%&6%	1%&-1%	9%&3%
5	O=C(CCC(=O)c1ccccc1)NCCc1c[nH]c2ccccc12	-11%	?	1%
6	Oc1cc2c(cc1O)[C@@H](c1ccccc1)CNCC2	-1%	1%	-1%
7	O=C(O)COCCN1CCN([C@H](c2ccccc2)c2ccc(Cl)cc2)CC1	-2%	5%	4%
8	CC(C)(C(=O)O)c1ccc(C(O)CCCN2CCC(C(O)(c3ccccc3)c3ccccc3)CC2)cc1 (stereo not drawn)	5%[57.1 µM]	-6%	-4%
9	C=CCN1CCc2c(cc(O)c(O)c2Cl)C(c2ccccc2)C1 (stereo not drawn)	5%[57.1 µM]	-4%	6%

entry	TrxR1 inh	USP1 inh
1	?	-29%
2	15%[57.1 µM]	-19%
3	8%[57.1 µM]	-13%
4	15%&24%	4%&-20%
5	-11%	-6%
6	10%	-21%
7	9%	?
8	11%[57.1 µM]	-26%
9	?	-24%

# From entry 2 as far as 9, as listed above:
entry	smiles	TrxR1 substrate	Pin1 inh	mIDH1 inhibitor
2	CCN1CCCC1CNC(=O)c1cc(S(N)(=O)=O)ccc1OC (stereo not drawn)	9%[57.1 µM]	-7%	-5%
3	CCN(CC)CCNC(=O)c1cc(S(C)(=O)=O)ccc1OC	3%[57.1 µM]	-6%	11%
4	CCN(CC)CCOc1ccc(/C(=C(/Cl)c2ccccc2)c2ccccc2)cc1	-3%&6%	1%&-1%	9%&3%
5	O=C(CCC(=O)c1ccccc1)NCCc1c[nH]c2ccccc12	-11%	?	1%
6	Oc1cc2c(cc1O)[C@@H](c1ccccc1)CNCC2	-1%	1%	-1%
7	O=C(O)COCCN1CCN([C@H](c2ccccc2)c2ccc(Cl)cc2)CC1	-2%	5%	4%
8	CC(C)(C(=O)O)c1ccc(C(O)CCCN2CCC(C(O)(c3ccccc3)c3ccccc3)CC2)cc1 (stereo not drawn)	5%[57.1 µM]	-6%	-4%
9	C=CCN1CCc2c(cc(O)c(O)c2Cl)C(c2ccccc2)C1 (stereo not drawn)	5%[57.1 µM]	-4%	6%

entry	TrxR1 inh	USP1 inh
2	15%[57.1 µM]	-19%
3	8%[57.1 µM]	-13%
4	15%&24%	4%&-20%
5	-11%	-6%
6	10%	-21%
7	9%	?
8	11%[57.1 µM]	-26%
9	?	-24%

# Screening data from PubChem BioAssay.
